# Bioassay records (PubChem BioAssay)
# Vaccinia stage: blocks a specific stage of Vaccinia orthopoxvirus infection, primary screen, cell-based, single point | AID 1053133, 2014 | Vaccinia-infected cells, mCherry/Venus stage reporter fluorescence; stronger effect = lower value; some inactives read as strong as hits | activity change (mCherry), % (test concentration not listed) | 89,000 compounds, 0.01% hits;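 active means mCherry past -33% and 40 or more points under the early reporter, replicates agreeing; inconclusive means past -33% without that gap or agreement; tested in A549 cells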;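 further: scaled between vehicle wells and reference inhibitor wells; 23 nL library stock went into each well; one replicate is shown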
# Vaccinia stage Venus: further read-out of Vaccinia stage, marked with its call; activity change (Venus), %; measured here: Venus reporter, other viral stage;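 negative = less Venus signal; first of two replicates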
# The depositor's hits bear a star; ? = inconclusive; nt = no result given. This is a subset; count on the stated rates, not on these rows.
SMILES,Vaccinia stage,Vaccinia stage Venus
O=C(C[C@@H]1C=C[C@@H](NC(=O)C2CCOCC2)[C@H](CO)O1)Nc1nccs1,11.8,18.4
CC(C)CC#Cc1cnc2c(c1)C(=O)N([C@H](C)CO)C[C@@H](C)[C@H](CN(C)C(=O)c1ccccc1F)O2,-15.5,-13.2
O=C(C[C@H]1C[C@@H]2c3cc(NS(=O)(=O)c4ccccc4)ccc3O[C@@H]2[C@H](CO)O1)N1CCCCC1,18.5,8.8
COc1ccc2c3c(n(C)c2c1)[C@H](CO)N(CC1CC1)CC31CN(Cc2ccc(F)cc2)C1,-18.2,-16.4
Cc1ccc(S(=O)(=O)N(C)C[C@H]2OCCCC[C@@H](C)Oc3ccc(NS(=O)(=O)c4ccc(F)cc4)cc3C(=O)N([C@@H](C)CO)C[C@H]2C)cc1,?,nt
C[C@@H]1CCCCO[C@H](CN(C)CC2CCCCC2)[C@H](C)CN([C@H](C)CO)C(=O)c2cc(NC(=O)c3ccccc3)ccc2O1,?,nt
C[C@@H]1CN([C@H](C)CO)C(=O)Cc2cc(NC(=O)CCCCCC(=O)Nc3ccccc3N)ccc2O[C@H]1CN(C)C(=O)Nc1cccc2ccccc12,18.2,13.6
COc1ccc(C#Cc2cnc3c(c2)C(=O)N([C@H](C)CO)C[C@H](C)[C@H](CN(C)S(=O)(=O)c2ccc(F)cc2)O3)cc1OC,-18.3,-11.9
Cc1ccc(S(=O)(=O)Nc2cccc3c2O[C@@H](CN(C)C(=O)Nc2ccc(C(F)(F)F)cc2)[C@H](C)CN([C@@H](C)CO)C3=O)cc1,8.3,23.0
Cc1noc(C)c1S(=O)(=O)N(C)C[C@H]1Oc2ccc(NC(=O)C3CCCCC3)cc2CC(=O)N([C@@H](C)CO)C[C@@H]1C,3.4,-5.0
C[C@@H]1CN([C@@H](C)CO)C(=O)c2cc(-c3cccc(F)c3)cnc2O[C@H]1CN(C)C(=O)C1CCOCC1,17.8,14.6
C[C@@H]1CN([C@@H](C)CO)C(=O)c2cc(NC(=O)CCCN(C)C)ccc2O[C@H]1CN(C)S(=O)(=O)c1ccccc1,1.3,-2.9
CO[C@H]1CN(C)C(=O)c2ccc(NS(=O)(=O)c3ccc(Cl)cc3)cc2OC[C@@H](C)NC[C@@H]1C,9.8,-4.7
C[C@@H]1CCCCO[C@H](CN(C)Cc2ccncc2)[C@@H](C)CN([C@@H](C)CO)C(=O)c2cc(NC(=O)Nc3ccccc3)ccc2O1,-32.1,-25.1
C[C@@H]1CN([C@@H](C)CO)C(=O)c2cc(NC(=O)CCC(F)(F)F)ccc2O[C@@H](C)CCCCO[C@H]1CN(C)Cc1ccc2c(c1)OCO2,?,nt
CN1CCN(C(=O)C[C@H]2CC[C@H]3[C@@H](COC[C@@H](O)CN3Cc3cccc(F)c3)O2)CC1,-3.7,5.4
COc1ccc(S(=O)(=O)N(C)C[C@@H]2Oc3ccc(NC(=O)Nc4ccc5c(c4)OCO5)cc3C(=O)N([C@H](C)CO)C[C@@H]2C)cc1,13.5,9.8
COCC(=O)N1CCC2(CC1)CN(C(=O)Nc1ccccc1F)[C@@H](CO)c1[nH]c3cc(OC)ccc3c12,29.9,2.2
COc1cccc(C(=O)Nc2ccc3c(c2)C(=O)N(C)C[C@H](OC)[C@@H](C)CN(C(C)=O)[C@@H](C)CO3)c1,-0.6,-1.0
C[C@@H]1CN([C@H](C)CO)C(=O)c2cc(NC(=O)Nc3cccc4ccccc34)ccc2O[C@@H](C)CCCCO[C@@H]1CN(C)S(=O)(=O)c1cn(C)cn1,40.8,25.2

# The final 2 records of the part before lead into the next.
SMILES,Vaccinia stage,Vaccinia stage Venus
COc1cccc(C(=O)Nc2ccc3c(c2)C(=O)N(C)C[C@H](OC)[C@@H](C)CN(C(C)=O)[C@@H](C)CO3)c1,-0.6,-1.0
C[C@@H]1CN([C@H](C)CO)C(=O)c2cc(NC(=O)Nc3cccc4ccccc34)ccc2O[C@@H](C)CCCCO[C@@H]1CN(C)S(=O)(=O)c1cn(C)cn1,40.8,25.2
O=C(C[C@H]1C=C[C@@H](NC(=O)CN2CCOCC2)[C@H](CO)O1)NC1CCC1,5.8,6.1
CNC[C@H]1OCCCC[C@H](C)Oc2ccc(NC(=O)Nc3c(C)noc3C)cc2C(=O)N([C@H](C)CO)C[C@H]1C,2.6,5.2
CO[C@H]1CN(C)C(=O)c2ccc(NC(=O)Nc3cc(F)ccc3F)cc2OC[C@@H](C)NC[C@@H]1C,-10.4,-5.8
COCC(=O)N1[C@@H](CO)[C@H](c2ccccc2)[C@@H]1CN(C)C(=O)c1ccncc1,6.5,4.3
CN1C(=O)c2cc(NC(=O)C3CCC3)ccc2OC[C@@H]2O[C@@H](CC(=O)NCC3CCCCC3)CC[C@@H]21,-5.9,-1.0
C[C@@H]1CN([C@@H](C)CO)C(=O)c2cc(-c3ccccc3F)cnc2O[C@@H]1CN(C)C(=O)NC1CCCCC1,-4.9,-4.0
C[C@@H]1CN([C@@H](C)CO)C(=O)c2cc(NS(=O)(=O)c3ccc(Cl)cc3)ccc2O[C@@H](C)CCCCO[C@H]1CN(C)C(=O)CCCN(C)C,31.0,18.8
CCNC(=O)C[C@H]1CC[C@H]2[C@H](COc3ccc(NC(=O)c4ccc5c(c4)OCO5)cc3C(=O)N2C)O1,14.8,16.5
Cc1ccc(S(=O)(=O)Nc2ccc3c(c2)C(=O)N([C@@H](C)CO)C[C@@H](C)[C@@H](CN(C)CC2CCCCC2)OCCCC[C@H](C)O3)cc1,?,nt
CCNC(=O)C[C@@H]1CC[C@@H]2[C@H](COc3ccc(NC(=O)Nc4ccc(Cl)cc4)cc3C(=O)N2C)O1,-15.1,-16.0
CO[C@H]1CN(C)C(=O)c2ccc(NC(C)=O)cc2OC[C@H](C)N(Cc2ccc(F)cc2)C[C@@H]1C,-18.8,-13.7
COc1cccc(NC(=O)N2CC(=O)N3[C@H](CO)[C@@H](c4ccc(C#CCC5CCCC5)cc4)[C@H]3C2)c1,?,nt
CCS(=O)(=O)N1CC(=O)N2[C@H](CO)[C@@H](c3ccc(-c4ccccc4)cc3)[C@H]2C1,-7.9,-6.3
COc1ccc(CN(C)C[C@H]2OCCCC[C@H](C)Oc3ccc(NC(=O)Nc4cccc5ccccc45)cc3C(=O)N([C@H](C)CO)C[C@H]2C)cc1,-18.2,-18.4
C[C@H](O)C#Cc1ccc2c(c1)O[C@@H](CN(C)Cc1cncnc1)[C@@H](C)CN([C@@H](C)CO)S2(=O)=O,9.9,7.6
COc1ccc(NC(=O)Nc2cccc3c2O[C@@H](CN(C)C(=O)NC2CCCCC2)[C@@H](C)CN([C@@H](C)CO)C3=O)cc1,-23.9,-15.7
COc1ccc(S(=O)(=O)Nc2ccc3c(c2)C(=O)N([C@H](C)CO)C[C@@H](C)[C@@H](CN(C)C(=O)Cc2ccccc2)OCCCC[C@@H](C)O3)cc1,-30.9,-34.2
CC(=O)N1CC2(C1)[C@@H](c1ccccc1)[C@@H](CO)N2Cc1cc(F)ccc1F,4.7,4.9
Cc1ccccc1S(=O)(=O)N1CCCCN2[C@H](CO)[C@H](c3ccc(-c4cccc(F)c4)cc3)[C@@H]2C1,?,nt
CN(C)C(=O)c1cccc(-c2ccc([C@H]3[C@H](CO)N4C(=O)CN(C(=O)Cc5ccccc5)C[C@@H]34)cc2)c1,15.7,6.0
CN1CCN(C(=O)C[C@H]2C[C@H]3c4cc(NC(=O)C5CCC5)ccc4O[C@H]3[C@H](CO)O2)CC1,-3.1,3.7
COCC(=O)Nc1ccc2c(c1)[C@@H]1C[C@@H](CC(=O)NCc3ccccc3)O[C@H](CO)[C@@H]1O2,9.8,7.4
COc1ccc(S(=O)(=O)Nc2ccc3c(c2)CC(=O)N([C@H](C)CO)C[C@@H](C)[C@@H](CN(C)Cc2ccc(C(=O)O)cc2)O3)cc1,0.8,15.5
C[C@@H]1CN([C@@H](C)CO)C(=O)Cc2cc(NS(=O)(=O)c3cn(C)cn3)ccc2O[C@@H]1CN(C)Cc1ccc(Cl)c(Cl)c1,-16.4,-14.7
C[C@@H](NC(=O)[C@H]1[C@H](CO)[C@H]2Cn3c(ccc(-c4ccncc4)c3=O)[C@@H]1N2C)c1ccccc1,-0.2,8.1
COc1ccc(S(=O)(=O)Nc2ccc3c(c2)CC(=O)N([C@@H](C)CO)C[C@@H](C)[C@@H](CN(C)C(=O)Nc2c(C)noc2C)O3)cc1,4.8,8.7
O=C(C[C@@H]1CC[C@@H]2[C@H](COC[C@H](O)CN2S(=O)(=O)c2ccccc2Cl)O1)NCc1ccccc1Cl,14.1,4.4
C[C@H]1CN([C@@H](C)CO)C(=O)Cc2cc(NS(C)(=O)=O)ccc2O[C@@H]1CN(C)C(=O)Nc1cccc2ccccc12,43.0,35.9
O=C(C[C@H]1CC[C@@H]2[C@H](COC[C@@H](O)CN2Cc2cc(F)ccc2F)O1)NCc1ccccc1,28.1,14.2
COCC(=O)N(C)C[C@@H]1Oc2cc(-c3ccc(C#N)cc3)ccc2S(=O)(=O)N([C@H](C)CO)C[C@@H]1C,8.7,10.2

# Structural class, the compounds so far containing a CF3 group
SMILES,Vaccinia stage,Vaccinia stage Venus
Cc1ccc(S(=O)(=O)Nc2cccc3c2O[C@@H](CN(C)C(=O)Nc2ccc(C(F)(F)F)cc2)[C@H](C)CN([C@@H](C)CO)C3=O)cc1,8.3,23.0
C[C@@H]1CN([C@@H](C)CO)C(=O)c2cc(NC(=O)CCC(F)(F)F)ccc2O[C@@H](C)CCCCO[C@H]1CN(C)Cc1ccc2c(c1)OCO2,?,nt

# Additional records:
SMILES,Vaccinia stage,Vaccinia stage Venus
COc1ccc(NC(=O)N(C)C[C@H]2Oc3ccc(NS(=O)(=O)c4ccc(Cl)cc4)cc3CC(=O)N([C@@H](C)CO)C[C@@H]2C)cc1,19.3,6.8
CC(C)NC(=O)N(C)C[C@H]1Oc2ncc(-c3cccc(C#N)c3)cc2C(=O)N([C@H](C)CO)C[C@@H]1C,32.6,13.4
O=C([C@H]1[C@H](CO)[C@H]2Cn3c(cccc3=O)[C@@H]1N2S(=O)(=O)c1ccccc1F)N1CCCCC1,9.2,8.9
C[C@H]1CN([C@@H](C)CO)S(=O)(=O)c2ccc(C#CC3(O)CCCC3)cc2O[C@@H]1CN(C)C(=O)c1ccccc1,12.0,2.3
CO[C@@H]1CN(C)C(=O)c2ccc(NC(=O)c3ccccc3F)cc2OC[C@@H](C)N(CC2CC2)C[C@@H]1C,-13.0,-13.6
Cc1noc(C)c1S(=O)(=O)Nc1ccc2c(c1)C(=O)N([C@H](C)CO)C[C@H](C)[C@@H](CN(C)Cc1ccccc1)O2,6.5,0.5
CCNC(=O)C[C@H]1CC[C@@H]2[C@@H](COc3ccc(NC(=O)Nc4cccc(C)c4)cc3C(=O)N2C)O1,0.9,-1.8
CCCNC(=O)C[C@@H]1CC[C@H]2[C@@H](COC[C@@H](O)CN2C(=O)c2ccc(F)cc2)O1,13.7,9.8
C[C@@H]1CCCCO[C@@H](CN(C)C(=O)Cc2ccccc2)[C@@H](C)CN([C@H](C)CO)C(=O)c2cc(NS(=O)(=O)c3ccccc3)ccc2O1,-17.0,-12.8
CC(=O)N(C)C[C@H]1Oc2cc(C#Cc3cccnc3)ccc2S(=O)(=O)N([C@@H](C)CO)C[C@@H]1C,15.4,5.0

# Record cards, from the list above. Screens in order: Vaccinia stage, Vaccinia stage Venus
# Listed for `CN1CCN(C(=O)C[C@H]2CC[C@H]3[C@@H](COC[C@@H](O)CN3Cc3cccc(F)c3)O2)CC1` = -3.7, 5.4
# Listed for `CC(C)NC(=O)N(C)C[C@H]1Oc2ncc(-c3cccc(C#N)c3)cc2C(=O)N([C@H](C)CO)C[C@@H]1C` = 32.6, 13.4
# Listed for `O=C(C[C@H]1CC[C@@H]2[C@H](COC[C@@H](O)CN2Cc2cc(F)ccc2F)O1)NCc1ccccc1` = 28.1, 14.2
# Listed for `COc1ccc(NC(=O)Nc2cccc3c2O[C@@H](CN(C)C(=O)NC2CCCCC2)[C@@H](C)CN([C@@H](C)CO)C3=O)cc1` = -23.9, -15.7
# Listed for `C[C@@H]1CN([C@H](C)CO)C(=O)c2cc(NC(=O)Nc3cccc4ccccc34)ccc2O[C@@H](C)CCCCO[C@@H]1CN(C)S(=O)(=O)c1cn(C)cn1` = 40.8, 25.2

# (continued)
SMILES,Vaccinia stage,Vaccinia stage Venus
Cc1noc(C)c1S(=O)(=O)Nc1ccc2c(c1)C(=O)N([C@@H](C)CO)C[C@@H](C)[C@@H](CN(C)C(=O)Nc1ccccc1)OCCCC[C@@H](C)O2,6.7,-0.9
C[C@H](CO)N1C[C@H](C)[C@H](CN(C)Cc2ccc3c(c2)OCO3)OCc2cnnn2CCCC1=O,12.5,20.8
CNC[C@@H]1Oc2ccc(NC(=O)Cn3cnnn3)cc2C(=O)N([C@@H](C)CO)C[C@H]1C,-1.5,-2.5
CCS(=O)(=O)NCC[C@@H]1CC[C@@H](NC(=O)Nc2cc(Cl)cc(Cl)c2)[C@@H](CO)O1,3.8,6.7
CC(C)NC(=O)N(C)C[C@@H]1OCCCC[C@@H](C)Oc2ccc(NS(=O)(=O)c3ccc(F)cc3)cc2C(=O)N([C@H](C)CO)C[C@H]1C,13.0,5.7
CC(C)CC#Cc1ccc2c(c1)O[C@@H](CN(C)S(C)(=O)=O)[C@@H](C)CN([C@@H](C)CO)S2(=O)=O,-18.0,-26.8
Cc1ccc(S(=O)(=O)Nc2cccc3c2O[C@@H](CN(C)Cc2ccc(C(F)(F)F)cc2)[C@@H](C)CN([C@@H](C)CO)C3=O)cc1,-19.1,-16.4
CN(C)C(=O)C[C@@H]1C[C@H]2c3cc(NC(=O)NC4CCCCC4)ccc3O[C@H]2[C@H](CO)O1,12.1,17.3
COc1ccc(NC(=O)N(C)C[C@@H]2Oc3ccc(NC(=O)NC4CCCCC4)cc3CC(=O)N([C@@H](C)CO)C[C@@H]2C)cc1,13.9,4.3
COc1ccc(NC(=O)N(C)C[C@H]2Oc3ccc(NC(=O)C4CCCCC4)cc3CC(=O)N([C@H](C)CO)C[C@@H]2C)cc1,-1.9,-1.6
COc1ccc(CN(C)C[C@@H]2OCCCC[C@H](C)Oc3ccc(NC(=O)Nc4cccc5ccccc45)cc3C(=O)N([C@@H](C)CO)C[C@H]2C)cc1,-13.2,-8.5
